Bioassay records as filed in PubChem.
AF4-AF9 inh = inhibitors of AF4 peptide binding to AF9, primary screen, biochemical, AlphaScreen, biotin-AF4 peptide, FLAG-AF9, single point. 350,000 compounds, 0.47% hits. AID 651704, 2012. inhibition, % at 10 µM;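 active = every replicate reaching a set inhibition limit, whatever the replicate mean, cut at about 25% in these data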;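 also: 0% = plate neutral control median and 100% = total signal loss; the record names both 10 and 1 µM as test concentration; the first replicate is given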
Target sequence (P42568 whole entry, looked up): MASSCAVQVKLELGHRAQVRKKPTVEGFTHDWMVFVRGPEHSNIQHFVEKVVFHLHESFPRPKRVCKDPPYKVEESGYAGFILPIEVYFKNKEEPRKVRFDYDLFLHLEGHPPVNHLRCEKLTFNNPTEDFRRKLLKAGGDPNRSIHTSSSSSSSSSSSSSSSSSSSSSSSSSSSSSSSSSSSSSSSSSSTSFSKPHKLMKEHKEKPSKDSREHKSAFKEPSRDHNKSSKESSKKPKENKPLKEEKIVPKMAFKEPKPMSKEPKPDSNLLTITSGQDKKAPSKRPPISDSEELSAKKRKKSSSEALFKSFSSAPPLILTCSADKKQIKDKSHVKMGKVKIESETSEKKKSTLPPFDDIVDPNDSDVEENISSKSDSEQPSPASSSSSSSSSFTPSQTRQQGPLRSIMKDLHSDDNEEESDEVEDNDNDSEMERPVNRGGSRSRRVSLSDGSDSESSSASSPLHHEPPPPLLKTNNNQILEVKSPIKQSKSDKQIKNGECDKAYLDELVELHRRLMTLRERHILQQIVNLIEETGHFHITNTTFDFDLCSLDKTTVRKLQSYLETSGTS
FGF22 binding = binders of human FGF22 protein, primary screen, FGF22 synaptogenesis inhibitor project, biophysical, thermal shift, single point; calls only at 9.99 µM; 340,000 compounds, 1.5% hits; Fibroblast growth factor 22 (Homo sapiens), Q9HCT0; recombinant FGF22 thermal shift, SYPRO orange fluorescence; percent of sucrose octasulfate shift, DMSO zero;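 active = melting point raised past a set limit in the mean and every replicate; three in four hits are not shown here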
Target sequence (Q9HCT0 whole entry, looked up): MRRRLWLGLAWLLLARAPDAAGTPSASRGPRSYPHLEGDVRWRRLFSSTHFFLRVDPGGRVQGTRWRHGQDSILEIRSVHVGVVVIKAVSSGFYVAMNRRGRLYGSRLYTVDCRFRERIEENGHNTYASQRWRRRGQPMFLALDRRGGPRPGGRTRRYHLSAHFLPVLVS
rRNA inh HTS = reduced GFP signal of wild-type E. coli, primary screen, bacterial rRNA inhibitor project, GFP/RFP fluorescence, OD600, single point; E. coli WT GFP vs humanized-ribosome RFP mutants, 24 h; active compounds read low; DMSO median 0, no signal -100; 350,000 compounds, 1.6% hits; GFP signal change (wild-type ribosome), % (no concentration beside the values);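 active = significant combined selectivity score with lowered wild-type GFP, culture density cut under 30%, mutant RFP and density less affected; inactive = any of these conditions unmet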; also: one replicate is shown; some compounds called inactive have numbers as strong as hits
rRNA inh HTS OD600 = also measured in rRNA inh HTS; calls as there; OD600 change, %; measured here: OD600 growth;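 optical density of the mix in the first replicate; 0 = DMSO median and -100 = no signal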
rRNA inh HTS RFP = also measured in rRNA inh HTS; calls as there; RFP signal change, %; measured here: RFP humanized mutant strains;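 first replicate; 0 = DMSO median and -100 = no signal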
Numbers without * were called inactive; i = inactive; & = joins results of further samples.

SMILES	AF4-AF9 inh	FGF22 binding	rRNA inh HTS	rRNA inh HTS OD600	rRNA inh HTS RFP
COc1ccc(S(=O)(=O)N(C)C[C@H]2OCCCC[C@@H](C)Oc3ccc(NC(=O)NC(C)C)cc3C(=O)N([C@@H](C)CO)C[C@H]2C)cc1	3.8	i	-2.7	1.4	2.7
c1cn2c(-c3ccoc3)cncc2n1	-5.3	i	27.8	32.5	3.2
COc1ccccc1C(=O)Nc1ccc2c(c1)C(=O)N(C)[C@H]1CC[C@H](CC(=O)Nc3cccc(C(C)C)c3)O[C@@H]1CO2	-0.2	i	-1.1	3.9	-1.9
CCC(=O)N(C)C[C@H]1Oc2cc(C#CC(C)C)ccc2S(=O)(=O)N([C@H](C)CO)C[C@@H]1C	1.3	i	-2.1	-7.3	-0.2
C[C@@H]1CCCCO[C@@H](CN(C)C(=O)c2ccncc2)[C@H](C)CN([C@@H](C)CO)C(=O)c2cc(NS(=O)(=O)c3ccccc3)ccc2O1	-2.0	i	-3.6	-0.1	-0.3
CCS(=O)(=O)Nc1ccc2c(c1)C(=O)N(C)[C@@H]1CC[C@H](CC(=O)N[C@H]3CCN(Cc4ccccc4)C3)O[C@H]1CO2	0.1	i	-2.0	-0.7	1.9
C[C@H](CO)N1C[C@H](C)[C@H](CN(C)S(=O)(=O)c2cccs2)Oc2c(NS(=O)(=O)c3cccs3)cccc2C1=O	-12.4	i	-6.1	0.5	-4.0
C[C@@H]1CN([C@H](C)CO)C(=O)c2cccc(NC(=O)C3CCCCC3)c2O[C@H]1CN(C)Cc1ccc(Cl)c(Cl)c1	-2.4	i	0.6	1.5	0.3
COc1ccc(S(=O)(=O)N(C)C[C@H]2Oc3c(NC(=O)CCCCCC(=O)Nc4ccccc4N)cccc3C(=O)N([C@@H](C)CO)C[C@@H]2C)cc1	-1.9	i	-3.8	-3.2	2.5
O=C(C[C@H]1CC[C@H](NS(=O)(=O)c2ccc(F)cc2)[C@H](CO)O1)N1CCN(c2ccccc2)CC1	0.1	i	-2.1	-5.5	0.4
C[C@@H]1CN([C@@H](C)CO)S(=O)(=O)c2ccc(C#CC3(O)CCCC3)cc2O[C@H]1CN(C)C(=O)Nc1ccc(F)cc1	-2.9	i	-1.8	-8.0	0.5
C[C@H](CO)N1C[C@H](C)[C@@H](CN(C)C(=O)C2CCCCC2)Oc2ncc(C#Cc3cccc(F)c3)cc2C1=O	2.2	i	-8.5	-13.7	8.2
CC(=O)NC1CC2CCCC(C1)N2C(=O)Nc1cccc(C)c1 (centres undefined)	-2.0	i	15.9	7.4	1.9
COc1cc(C(O)c2nc(-c3cnn(C)c3)cs2)ccc1F (centres undefined)	-1.3	i	8.2	13.9	1.0
CO[C@H]1CN(C)C(=O)c2cc(NS(=O)(=O)CC(F)(F)F)ccc2OC[C@@H](C)N(CC2CCCCC2)C[C@@H]1C	-0.5	i	-3.8	-6.9	3.1
OCC1OC2C(NC(=S)N2c2ccccc2)C(O)C1O (centres undefined)	-0.1	i	1.4	7.6	-2.8
COc1ccc(S(=O)(=O)Nc2ccc3c(c2)C(=O)N([C@@H](C)CO)C[C@@H](C)[C@H](CN(C)C)OCCCC[C@@H](C)O3)cc1	-2.4	i	-0.4	-5.9	-0.6
C[C@@H]1CN([C@@H](C)CO)C(=O)c2cc(C3=CCCCC3)cnc2O[C@@H]1CN(C)Cc1cccc(F)c1	2.7	i	6.6	-4.3	4.7
O=C(Cn1nnc(-c2ccccc2)c1COc1ccc2ccccc2c1)NCC1CC1	0.6	i	-27.0	-57.2	2.4
COc1cccc(CNc2nc3cc(-c4ccc(C)cc4)sc3c(=O)n2C)c1OC	2.7	i	21.5	3.4	-6.1
C[C@H]1CN([C@@H](C)CO)C(=O)c2cc(NC(=O)Cn3cnnn3)ccc2O[C@H]1CN(C)Cc1ccc2c(c1)OCO2	2.2	i	1.6	-5.6	0.7
Cc1noc(C)c1NC(=O)Nc1ccc2c(c1)C(=O)N([C@H](C)CO)C[C@@H](C)[C@@H](CN(C)Cc1ccc3c(c1)OCO3)O2	-3.1	i	-7.9	1.0	-5.3
C[C@@H]1CN([C@@H](C)CO)C(=O)c2cc(NC(=O)Cc3ccccc3)ccc2O[C@@H](C)CCCCO[C@H]1CN(C)S(=O)(=O)c1ccc(Cl)cc1	0.5	i	3.7	5.3	2.5
C[C@H]1CN([C@@H](C)CO)C(=O)CCCn2nncc2CO[C@@H]1CN(C)C(=O)C1CC1	-0.6	i	-0.4	-5.7	0.2
COCC(=O)Nc1ccc2c(c1)[C@@H]1C[C@@H](CC(=O)NCCN3CCCCC3)O[C@H](CO)[C@@H]1O2	-14.7	i	2.1	3.9	-2.2
N#C[C@@H]1[C@H](c2ccccc2)[C@@H](CO)N1S(=O)(=O)c1ccc(-c2ccccc2)cc1	1.8	i	-34.9	-64.5	2.0
Cc1ccc(C=C2C=C(c3ccccc3)OC2=O)cc1	2.0	i	-2.2	6.1	6.4
NC(=O)NN=C1CC2CC1C1C=CCC21 (centres undefined)	3.2	i	0.3	11.6	-3.5
Cc1ccccc1N=Cc1ccc[nH]1	-2.9	i	-3.5	1.8	-1.4
CCC(=O)N1[C@H](C#N)[C@H](c2ccccc2-c2cccc(C)c2)[C@H]1CO	-0.8	i	1.5	10.3	-5.5

Six compounds out of the list, ordered by formula weight, descending:
SMILES	AF4-AF9 inh	FGF22 binding	rRNA inh HTS	rRNA inh HTS OD600	rRNA inh HTS RFP
C[C@H](CO)N1C[C@H](C)[C@H](CN(C)S(=O)(=O)c2cccs2)Oc2c(NS(=O)(=O)c3cccs3)cccc2C1=O	-12.4	i	-6.1	0.5	-4.0
C[C@@H]1CN([C@@H](C)CO)S(=O)(=O)c2ccc(C#CC3(O)CCCC3)cc2O[C@H]1CN(C)C(=O)Nc1ccc(F)cc1	-2.9	i	-1.8	-8.0	0.5
CO[C@H]1CN(C)C(=O)c2cc(NS(=O)(=O)CC(F)(F)F)ccc2OC[C@@H](C)N(CC2CCCCC2)C[C@@H]1C	-0.5	i	-3.8	-6.9	3.1
C[C@H](CO)N1C[C@H](C)[C@@H](CN(C)C(=O)C2CCCCC2)Oc2ncc(C#Cc3cccc(F)c3)cc2C1=O	2.2	i	-8.5	-13.7	8.2
N#C[C@@H]1[C@H](c2ccccc2)[C@@H](CO)N1S(=O)(=O)c1ccc(-c2ccccc2)cc1	1.8	i	-34.9	-64.5	2.0
OCC1OC2C(NC(=S)N2c2ccccc2)C(O)C1O (centres undefined)	-0.1	i	1.4	7.6	-2.8

(further entries)
SMILES	AF4-AF9 inh	FGF22 binding	rRNA inh HTS	rRNA inh HTS OD600	rRNA inh HTS RFP
COC(=O)c1c(-c2ccc(OC)cc2)c2c(c3c4cc(OC)ccc4n(C(=O)c4ccccc4)c13)C(=O)N(C)C2	2.0	i	-0.4	4.7	-3.9
Cc1ccc(S(=O)(=O)N(C)C[C@@H]2Oc3ccc(N(C)C)cc3C(=O)N([C@@H](C)CO)C[C@H]2C)cc1	3.9	i	-4.9	2.3	0.3
CS(=O)(=O)N1CCCCC1c1cc(C(=O)NCc2ccc(F)cc2)no1 (centres undefined)	-2.5	i	6.4	14.9	4.8
CNC[C@H]1Oc2ccc(NS(=O)(=O)c3cn(C)cn3)cc2C(=O)N([C@@H](C)CO)C[C@@H]1C	-0.9	i	4.0	14.8	-1.1
CC(C)(C)[S@@](=O)N1Cc2cc(C(=O)N3CCCCC3)nc(-c3cccc(-c4ccccc4F)c3)c2[C@H]1CCO	0.2	i	-2.6	-7.3	27.8
c1ccc(-c2ncnc3ccccc23)cc1	0.8	i	5.7	13.4	4.0
O=C(Nc1ccc(Cl)cc1)N[C@@H]1CC[C@H](CCNC(=O)c2ccccc2F)O[C@H]1CO	-3.4	i	-5.2	-5.8	1.4
CN(C)C(=O)C[C@H]1CC[C@@H]2[C@H](COc3ccc(NC(=O)c4ccc(F)cc4)cc3C(=O)N2C)O1	-1.2	i	1.2	5.2	-1.5
C[C@H]1CN([C@@H](C)CO)C(=O)c2cccc(NC(=O)c3nc4ccccc4s3)c2O[C@@H]1CN(C)Cc1ccc(C(=O)Nc2ccccc2N)cc1	1.8	i	-8.7	0.0	-3.1
CCOc1ccc(NC(=O)CN2CCN(c3ccc(F)cc3)CC2)cc1S(=O)(=O)N1CCCC1	5.0	i	-9.3	-11.4	7.8
COc1ccc(CN(C)C[C@H]2Oc3ccc(NC(=O)CCCCCC(=O)Nc4ccccc4N)cc3CC(=O)N([C@H](C)CO)C[C@H]2C)cc1	0.8	i	-1.2	-1.7	-1.5
COc1cccc(NC(=O)N[C@@H]2CC[C@@H](CC(=O)Nc3ccc(-c4ccccc4)cc3)O[C@H]2CO)c1	-0.1	i	-1.7	6.2	1.9
Cc1cccc2c(=O)n3c(cc12)-c1[nH]c2ccccc2c1CC3	-7.2	i	-8.1	-9.7	-1.5
CN(C)CC(=O)N[C@@H]1CC[C@@H](CCNC(=O)Nc2ccc(C(F)(F)F)cc2)O[C@@H]1CO	7.5	i	-59.0	-81.8	-18.0
Cc1ccc(CN(C)C[C@H]2OCc3cnnn3CCCC(=O)N([C@@H](C)CO)C[C@@H]2C)cc1	-4.1&1.0	i	8.0&2.7	17.8&3.6	3.5&-2.5
CCCN(C)C[C@@H]1OCCCC[C@@H](C)Oc2ccc(NC(=O)Nc3ccccc3)cc2C(=O)N([C@H](C)CO)C[C@@H]1C	0.2	i	1.4	-0.5	-0.3
CN1C(=O)c2cc(NC(=O)c3cccc(F)c3)ccc2OC[C@@H]2O[C@@H](CC(=O)NCC3CCCCC3)CC[C@@H]21	-4.8	i	-10.2	-17.1	5.0
CO[C@@H]1CN(C)C(=O)c2ccc(NS(=O)(=O)c3c(C)noc3C)cc2OC[C@@H](C)NC[C@@H]1C	-5.7&-7.1	i	4.4&2.8&6.9	2.2&0.2&7.8	0.0&-1.9&1.0
O=C(C[C@H]1C[C@H]2c3cc(NC(=O)Nc4ccccc4)ccc3O[C@H]2[C@H](CO)O1)NCC1CC1	-3.6	i	-2.5	4.9	-0.7
COc1cc(CN2C[C@@H](CO)O[C@@H](n3cnc4c(NCc5ccncc5)ncnc43)C2)cc(OC)c1OC	-5.5	i	16.2	13.8	2.9
CC(C)C#Cc1ccc2c(c1)O[C@@H](CN(C)C(=O)c1cccnc1)[C@@H](C)CN([C@@H](C)CO)S2(=O)=O	-0.7	i	-0.3	-0.1	0.3
C[C@@H]1CN([C@@H](C)CO)C(=O)c2cc(NC(=O)CCC(F)(F)F)ccc2O[C@@H](C)CCCCO[C@H]1CN(C)C(=O)Nc1ccccc1	-3.0	i	-1.4	4.2	-3.8
CCCC(=O)N1CC2(CN(C(=O)NC(C)C)C2)c2c([nH]c3cc(OC)ccc23)[C@@H]1CO	-2.7	i	-0.3	-6.1	0.4
CC1(C(=O)NS(=O)(=O)c2cccc(C#N)c2)CCN1C(=O)CC1CCCC1 (centres undefined)	-2.1	i	8.5	10.2	-0.8
C[C@H]1CN([C@@H](C)CO)C(=O)c2cccc(NC(=O)C3CC3)c2O[C@@H]1CN(C)C(=O)NC1CCCCC1	-3.2	i	3.9	4.6	-0.4
O=C(CC[C@H]1O[C@@H](n2ccc(=O)[nH]c2=O)[C@H](O)[C@@H]1O)N[C@@H](Cc1ccccc1)C(=O)NCC1CCCO1 (some centres undefined)	-1.6	i	26.9	27.1	1.7
COCC(=O)Nc1ccc2c(c1)OC[C@H](C)N(Cc1ccccn1)C[C@H](C)[C@@H](OC)CN(C)C2=O	-2.2	i	4.3	7.2	0.2
C[C@@H]1CN([C@@H](C)CO)C(=O)c2cc(-c3ccc(F)cc3)cnc2O[C@@H]1CN(C)Cc1ccc(C(=O)O)cc1	-2.5	i	2.1	3.0	-6.4
Cc1cn([C@H]2C[C@H](O)[C@@H](CNCC3=Cc4cc(O)ccc4OC3)O2)c(=O)[nH]c1=O	1.4	i	-0.4	5.6	-3.0
O=C(C[C@@H]1C[C@@H]2c3cc(NC(=O)NC4CCCC4)ccc3O[C@@H]2[C@H](CO)O1)NCc1cccc(F)c1	-1.5	i	0.9	18.2	10.6
COCC(=O)N1C[C@@H](C)[C@H](OC)CN(C)C(=O)c2ccc(NC(=O)NC(C)C)cc2OC[C@H]1C	-0.5	i	6.0	14.2	-1.2
COC(=O)[C@]12C[C@H](CC(=O)NCCc3ccccc3OC)C(=O)N(Cc3ccc4c(c3)OCO4)C1=C[C@H](COCc1ccccc1)O[C@@H]2C	-1.2	i	13.1	7.7	15.0
CSc1ccccc1-c1cnc2cccnn12	0.3	i	8.9	9.3	4.6
O=C(C[C@@H]1C=C[C@@H](NC(=O)C2CC2)[C@@H](CO)O1)Nc1nccs1	0.9	i	-0.9	1.4	0.1
c1ccc(COc2ncnc3c2ncn3CCCNC2CCN(Cc3ccccc3)CC2)cc1	11.3	i	-0.4	4.6	8.8

These rows are one share of the data; count on the stated rates, not on these rows.
